Bfl-1 A1 inh: inhibitors of the anti-apoptotic protein A1, read as caspase activation. MEF A1-2A-BIM cells, Caspase-Glo 3/7 luminescence, 3 h; percent of clofoctol response, vehicle zero. caspase activation, % (test concentration not listed). 330,000 tested, 0.066% active. AID 2462;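 active = over half of replicate activation scores above 10%, or exactly half above 10 with the replicate mean above 10; inconclusive = replicate mean below 10 yet half the replicates above 10; inactive = over half of replicates below 10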;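 also: wells of about 30 µL received 50 nL stock; many hits fall short of the cut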
LANA-H2A inh: blocks KSHV LANA binding to histone H2A/H2B; cell-free LANA-H2A/H2B peptide, fluorescence polarization; inhibition, % (test concentration not listed); 320,000 tested, 0.6% active; AID 2629; in the data active = inhibition mostly above about 10%, no sharp cut-off; inactive = mostly below about 6.7%;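 also: stock transfer was 7.5 nL into about 10 µL; 0% = median of vehicle wells and 100% = median of positive control wells; one replicate is shown; the record names a cut of 25% in any replicate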
Target sequence (Q9QR71 whole entry, looked up): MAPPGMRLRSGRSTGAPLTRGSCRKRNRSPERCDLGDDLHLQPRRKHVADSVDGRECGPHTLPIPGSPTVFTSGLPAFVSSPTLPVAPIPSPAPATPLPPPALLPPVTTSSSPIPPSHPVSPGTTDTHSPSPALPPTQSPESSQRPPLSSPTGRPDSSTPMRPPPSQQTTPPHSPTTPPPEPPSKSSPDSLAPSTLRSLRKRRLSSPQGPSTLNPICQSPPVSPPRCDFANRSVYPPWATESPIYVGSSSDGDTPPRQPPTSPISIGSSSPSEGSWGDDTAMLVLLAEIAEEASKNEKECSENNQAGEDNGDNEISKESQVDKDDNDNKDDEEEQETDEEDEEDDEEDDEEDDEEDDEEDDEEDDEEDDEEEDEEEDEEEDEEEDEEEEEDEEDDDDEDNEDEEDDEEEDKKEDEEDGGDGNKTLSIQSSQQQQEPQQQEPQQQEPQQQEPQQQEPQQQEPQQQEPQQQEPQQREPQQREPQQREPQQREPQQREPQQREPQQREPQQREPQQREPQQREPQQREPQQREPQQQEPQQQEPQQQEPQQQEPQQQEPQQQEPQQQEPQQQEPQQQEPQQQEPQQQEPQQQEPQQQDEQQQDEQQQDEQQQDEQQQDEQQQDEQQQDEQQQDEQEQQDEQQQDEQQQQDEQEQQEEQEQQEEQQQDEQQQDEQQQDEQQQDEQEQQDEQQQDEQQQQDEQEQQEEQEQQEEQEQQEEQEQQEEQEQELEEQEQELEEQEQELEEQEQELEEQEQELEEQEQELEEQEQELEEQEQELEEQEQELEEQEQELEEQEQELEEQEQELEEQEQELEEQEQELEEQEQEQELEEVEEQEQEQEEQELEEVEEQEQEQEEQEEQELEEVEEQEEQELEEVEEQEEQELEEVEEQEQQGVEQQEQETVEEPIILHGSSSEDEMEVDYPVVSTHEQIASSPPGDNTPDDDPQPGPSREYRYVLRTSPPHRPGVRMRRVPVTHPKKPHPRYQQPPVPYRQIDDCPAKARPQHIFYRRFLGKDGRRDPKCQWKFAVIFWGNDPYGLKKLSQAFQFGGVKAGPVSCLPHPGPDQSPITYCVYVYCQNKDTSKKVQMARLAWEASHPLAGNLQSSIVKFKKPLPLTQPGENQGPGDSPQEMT
B2AR ag: activates human beta-2 adrenergic receptor causing internalization; P07550; Am2.2-beta2AR cells, FAP receptor internalization, flow cytometry; reference of the scale not given here; response, % (test concentration not listed); 340,000 tested, 0.43% active; AID 504454;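 active = response above a set limit, near 3 SD of response in nonfluorescent compounds, cut at about 42% in these data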;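 also: stock transfer was 100 nL into about 11 µL; a reference agonist was the positive control; negative values mostly stem from fluorescent compounds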
T cruzi inh: blocks replication of Trypanosoma cruzi | T. cruzi beta-gal in NIH3T3, luminescence, 90 h | inhibition, % (no concentration beside the values) | 300,000 tested, 1.4% active | AID 1885;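 active = mean inhibition across valid replicates above about 55%, limit read from the data; inconclusive = mean below that limit but half or more replicates reach it; inactive = mean below it, under half of replicates reach it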;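 also: signal also drops with host cell toxicity which is not excluded here; 0% = plate median of DMSO wells and 100% = zero luminescence signal; higher percent means less beta-gal luminescence so fewer parasites; stock transfer was 50 nL into about 50 µL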
Beta apoptosis: beta cell apoptosis inhibition | AID 435005 | INS-1E cytokine-induced death, ATP luminescence, 48 h; percent of positive-control rescue, neutral wells zero | protection from apoptosis, % (test concentration not listed) | 300,000 tested, 0.8% active;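 active = all replicates at 75% or more, or half of them and the mean; inconclusive = half reach 75% but not the mean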;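 also: 0% = cytokine-treated negative control wells and 100% = positive control rescue; higher means more ATP so stronger rescue from cytokine killing; wells of about 40 µL received 100 nL stock; the first replicate is given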
Calb FLC: C. albicans growth modulation with fluconazole; 300,000 tested, 0.57% active; growth inhibition, % (test concentration not listed); AID 1979; C. albicans CaCi-2 (fluconazole-resistant clinical isolate) + fluconazole, Alamar Blue growth, 48 h;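 active = most replicates above 75%; inconclusive = exactly half above 75%; inactive = most below 75%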;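 also: all wells also contain fluconazole at 8 µg/ml as a sub-toxic cotreatment; 0% = median of DMSO wells and 100% = median of geldanamycin control wells; wells of about 8 µL received 7.5 nL stock; the first replicate is given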
RanGTP-Imp inh: inhibitors of RanGTP-importin-beta interaction, primary screen, biochemical, FRET, CFP-Ran, YFP-importin-beta, homogeneous | cell-free CFP-Ran/YFP-importin-beta FRET ratio | AID 2216 | inhibition, % (concentration not given with the values) | 300,000 tested, 1.1% active;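 active = most replicates above 15%; inconclusive = exactly half above 15%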;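 also: 0% = DMSO wells and 100% = Ran loaded with GDP instead of GTP; wells of about 40 µL received 100 nL stock; the first replicate is given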
UCH37 inh: human UCH37 deubiquitinating enzyme inhibition; 330,000 tested, 0.33% active; inhibition, % (no concentration beside the values); purified proteasome/UCH37, Ub-AMC cleavage fluorescence; AID 588478; Q9Y5K5;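 active = mean of two replicates above 20%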;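 also: 0% = compound-free wells with enzyme and 100% = wells lacking proteasome; stock transfer was 100 nL into about 20 µL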
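Material: human UCH37 enzyme supplied as purified proteasome complex / Amount: 0.15 nM proteasome as dispensed / Buffer or medium: pH 7.4 Tris-HCl (50 mM) with ovalbumin, ATP-MgCl2, DTT / Times: preincubation 30 min, reaction 25 min, room temperature / Technique: AMC fluorescence from Ub-AMC cleavage, excitation 355 nm, emission 460 nm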
* marks the source's active call; other numbers are inactive results; ? = inconclusive; · = not tested or not shown.

Molecule	UCH37 inh	RanGTP-Imp inh	B2AR ag	Bfl-1 A1 inh	Beta apoptosis	T cruzi inh	Calb FLC	LANA-H2A inh
Cn1c(-c2cccc(Br)c2)cnc1NCc1ccccc1O	1.8	3.9	1	1.4	2	-6	-37	-0.1
CC(=O)c1[nH]c(C)c(C(=O)N2CCCC(Nc3cccc(F)c3)C2)c1C (stereo not given)	1.0	2.1	-6	0.6	-9	4	-1	-1.1
CC(C)(C)NC(=O)N1CCCC(C(=O)c2cccc(Cl)c2)C1 (stereo not given)	-0.8	0.0	6	0.6	-3	-4	11	2.7
COc1ccc(CN2CCN(Cc3ccc(C)cc3)CC2)c(OC)c1	2.7	3.1	0	1.6	-2	57*	-4	0.0
O=c1c2ccccc2n2c(-c3ccc(C(F)(F)F)cc3)nnc2n1Cc1ccccc1	6.6	-0.4	-23	0.1	11	12	1	-0.8
O=C(C1CCC(CNc2c(N3CCCC3)c(=O)c2=O)CC1)N1CCc2ccccc21 (stereo not given)	1.7	0.0	-3	-0.2	11	-22	8	-7.4
Cc1ccc(CN2CCN(C3CSCCSC3)CC2CCO)cc1 (stereo not given)	1.8	5.1	-4	0.4	-3	30	-28	-1.0
Cc1onc(-c2ccccc2)c1C(=O)NCC1CCN(C(=O)c2c(-c3ccccc3)noc2C)CC1	1.4	3.4	0	0.9	·	0	5	-4.1
CC(=O)c1ccc(-c2ccccc2OC(F)(F)F)o1	4.5	4.1	1	0.5	-12	-8	3	-0.3
CCCc1nn(C)c(C(=O)Nc2cccc(C)c2)c1Cl	4.5	3.4	0	-1.0	5	3	?	-1.8
Cc1ccc(N2C(=O)CC(Sc3ccccc3C(=O)O)C2=O)cc1 (stereo not given)	4.5	-4.4	2	-0.6	-3	-11	0	1.8
O=C(CC(SCc1ccco1)c1ccc(O)cc1)c1cccs1 (stereo not given)	3.1	-0.5	-5	-12	-14	-14	13	-2.0
CCOc1ccc(/C=N/NC(=O)C(C)N(c2ccc(OC)cc2)S(C)(=O)=O)cc1OCC (stereo not given)	·	-4.0	5	-0.2	-3	-3	?	-5.0
CCc1sc(C(=O)NCCc2ccc(S(N)(=O)=O)cc2)cc1C	1.6	1.1	5	?	-2	2	3	-3.0
O=C(Nc1ccc(F)cc1F)c1ccc2c(c1)[nH]c(=O)n2Cc1ccc(F)cc1	-2.0	-5.0	-3	0.4	7	52	-51	8.3

Other structures:
Molecule	UCH37 inh	RanGTP-Imp inh	B2AR ag	Bfl-1 A1 inh	Beta apoptosis	T cruzi inh	Calb FLC	LANA-H2A inh
COCCCNC(=O)C1CCCN(S(=O)(=O)c2ccc(C)cc2)C1 (stereo not given)	1.3	-0.3	0	0.9	-7	7	-5	-1.5
CCN(CC)C1CCS(=O)(=O)C1 (stereo not given)	-1.4	?	4	-0.6	-4	-12	14	-4.9
Cc1ccc(CNC(=O)CCc2ccccc2)cc1	6.5	1.1	-13	0.0	-5	0	-3	-1.4
CC(C(=O)Nc1ccon1)N1C(=O)c2ccccc2S1(=O)=O (stereo not given)	3.6	-0.7	-6	-0.6	-7	-12	·	-3.0
CCOC(=O)C1(CCCc2ccccc2)CCN(Cc2ccn[nH]2)CC1	2.0	2.4	1	-0.4	-4	7	-2	-3.0
O=C(NCCCCC(NC(=O)C1CCCCC1)C(=O)O)c1ccccc1 (stereo not given)	1.6	3.7	3	1.1	-4	-3	14	4.8
NN(CCO)C(=S)Nc1ccc(Cl)cc1	1.1	-1.1	11	0.8	5	-14	3	2.7
CCOc1ccc(C(=O)NC(=S)N2CCN(c3ccc(C(F)(F)F)cc3[N+](=O)[O-])CC2)cc1	1.9	-1.0	6	0.9	-9	0	3	0.4
CCOc1ccccc1OCCOc1ccccc1OC(C)C	0.8	-3.2	-14	-0.8	·	7	3	1.7
CN(C)S(=O)(=O)c1cc(NC(=O)COC(=O)C2COc3ccccc3O2)ccc1Cl (stereo not given)	3.9	-1.6	-5	0.3	1	-7	-3	-1.8
CC(=O)/C(=C/N(C)C)C(=O)Nc1ccc(Cl)cc1Cl	3.7	0.0	-5	-5.8	1	11	29	-3.2
COc1ccccc1CCC(=O)OCC(=O)Nc1ccc(C(N)=O)cc1	5.4	5.2	-1	-0.3	0	-9	-2	1.5
CCn1c2ccccc2n2c(=O)c(=O)n(CC(=O)N3CCN(c4ccccc4OC)CC3)nc12	0.0	0.6	·	0.3	2	-30	-8	-1.3
CSc1ncccc1C(=O)OCC(=O)Nc1ccc(N2CCOCC2)cc1	5.1	·	9	0.0	0	·	·	6.7
COc1ccc(N2CC(O)=C(c3nc4ccccc4s3)C2=N)c(OC)c1	-2.7	-1.3	18	-0.6	-7	27	-9	0.4

Next section:
Molecule	UCH37 inh	RanGTP-Imp inh	B2AR ag	Bfl-1 A1 inh	Beta apoptosis	T cruzi inh	Calb FLC	LANA-H2A inh
CCCCn1c(N)c(N(CCOC)C(=O)c2ccc(Br)s2)c(=O)[nH]c1=O	1.5	-0.1	-3	0.0	1	-3	5	-4.9
CCOC(=O)c1ccccc1NC(=O)c1cncc(Br)c1	-0.7	2.2	-5	·	·	3	-8	·
Cn1c(=O)cc(SCC(=O)NCCCN2CCOCC2)c2ccccc21	-2.2	-5.1	2	-0.1	·	8	2	-0.5
CSc1ncccc1C(=O)N1CCCC(N2CCN(c3ccccc3F)CC2)C1 (stereo not given)	1.0	-0.3	7	1.1	4	3	-7	2.2
O=C(Nc1ccc(N2CCOCC2)cc1)c1ccc(Br)o1	4.6	0.5	-5	-8.7	5	-8	7	4.0
CCN(CC)c1ccc(NC(=O)c2c(C)noc2C)cc1	1.6	2.5	2	0.1	0	-1	0	-0.1
Cc1ccc(-c2cnc3n2CCCCC3)cc1	1.0	-1.2	1	-1.2	-4	-7	-8	-10
C=CCN1C(=NC(=O)COc2ccccc2)SC2CS(=O)(=O)CC21 (stereo not given)	5.4	-1.6	-14	0.4	-2	3	0	-0.9
CCOc1ccccc1C1CC(c2ccc(F)cc2)Nc2nc(N)nn21 (stereo not given)	2.5	1.8	10	1.1	9	30	1	0.1
Cc1ccc2cc3cc(C(=O)NCc4ccco4)oc3nc2c1	-93	3.5	2	0.0	-7	-10	-4	3.2
Cc1ccc(C(=O)NCCn2cc(SCC(=O)N3CCOCC3)c3ccccc32)cc1	5.7	-0.5	0	0.3	-1	-1	0	-1.3
CN1CCN(C(=S)NC(=O)c2cccc(S(=O)(=O)N(C)C)c2)CC1	3.9	?	1	0.8	-1	-13	4	-2.2
Nc1ncnc2c1ncn2[C@@H]1O[C@H](CO)C[C@@H]1O	·	0.0	·	?	·	61*	41	3.7
COc1cc2c(cc1NC(=O)CN1CCN(S(=O)(=O)c3ccc(C)cc3)CC1)oc1ccccc12	-29	5.6	2	-0.4	16	32	-3	-1.5
CCc1cc(C(=O)N2CCN(C(=O)c3ccco3)CC2)sc1C	-3.3	1.4	1	0.1	-6	-12	5	-1.1

The listing continues.
Molecule	UCH37 inh	RanGTP-Imp inh	B2AR ag	Bfl-1 A1 inh	Beta apoptosis	T cruzi inh	Calb FLC	LANA-H2A inh
CCOc1ccc(C(=O)NCC(=O)NNC(=O)c2cc(C)oc2C)cc1OCC	1.4	·	-4	0.5	1	·	·	-9.4
Cc1cccc(CC(=O)NCCS(=O)(=O)N2CCN(c3cccc(Cl)c3)CC2)c1	0.0	1.1	3	-0.1	·	-3	10	-3.3
O=C(Nc1cnn(Cc2c(Cl)cccc2Cl)c1)c1ccc([N+](=O)[O-])cc1	0.1	4.0	3	1.1	8	14	5	-1.4
O=C(NC1CC1)c1cc2ccccc2o1	-0.1	-0.4	2	-0.9	-6	-15	10	4.5
CC(O)Cc1nsc(NC(=O)c2cccs2)n1 (stereo not given)	10	-6.5	-6	-0.8	3	-5	-4	-0.1
Nc1ccc(NC(=O)c2ccc(C(=O)Nc3ccc(N)cc3)cc2)cc1	·	1.2	1	-0.2	-4	-3	0	-2.3
CCOC(=O)CN1CC23C=CC(O2)C(C(=O)NCc2ccccc2OC)C3C1=O (stereo not given)	0.7	-4.0	2	-0.5	3	-2	11	0.9
COc1cc(C(CC(=O)Nc2ccccn2)N2Cc3ccccc3C2=O)cc(OC)c1OC (stereo not given)	2.8	-1.0	-26	-0.5	3	-3	-9	-1.9
CCc1nnc(NC(=O)C2=CCN(S(=O)(=O)c3ccc(F)cc3)CC2)s1	2.3	3.0	0	-0.1	-11	2	-13	0.1
CCC(C)NC(=O)C1c2ccccc2C(=O)N1Cc1ccc(F)cc1 (stereo not given)	0.1	?	23	0.8	0	2	0	2.2
O=C(CN1C(=O)C2C3C=CC(C3)C2C1=O)Nc1nc(-c2ccccn2)cs1 (stereo not given)	0.8	7.9	1	-0.6	-4	14	5	5.6
Cc1nc(C(C)NC(=O)c2ccc(OC3CCN(Cc4ccccn4)CC3)cc2)c(C)s1 (stereo not given)	-1.6	2.2	-9	-0.8	-7	5	-1	1.0
COc1ccc2nc(SCc3cnc(C)nc3N)[nH]c2c1	2.0	-1.3	4	-0.4	·	-12	0	0.3
CCN(CC)S(=O)(=O)c1ccc(-c2csc(C)n2)cc1	-1.5	-3.4	0	-0.1	1	4	-16	-0.7
O=C1c2ccccc2C(=O)N1OCc1cccc(Cl)c1	2.4	0.6	3	-2.3	-4	-21	-2	1.5
O=C(Nc1nc2ccc(SC(F)F)cc2s1)c1ccc(NS(=O)(=O)c2ccc(F)c(F)c2)cc1	-60	2.5	17	0.0	18	14	?	1.6

Two of these compounds, set out differently:
Values run as follows: UCH37 inh | RanGTP-Imp inh | B2AR ag | Bfl-1 A1 inh | Beta apoptosis | T cruzi inh | Calb FLC | LANA-H2A inh
CCCCn1c(N)c(N(CCOC)C(=O)c2ccc(Br)s2)c(=O)[nH]c1=O
 : 1.5 | -0.1 | -3 | 0.0 | 1 | -3 | 5 | -4.9
CCc1sc(C(=O)NCCc2ccc(S(N)(=O)=O)cc2)cc1C
 : 1.6 | 1.1 | 5 | ? | -2 | 2 | 3 | -3.0
